# Bioassay records from PubChem BioAssay.
# MT1-MMP act inh: blockers of MT1-MMP proenzyme processing, primary screen, HT1080 RFP-PRO-GFP cells, GFP/RFP fluorescence. Matrix metalloproteinase-14 (Homo sapiens), P50281. GFP/RFP ratio fluorescence, overnight; percent of plate control window, DMSO zero. GFP/RFP ratio change, % at 20 µM. 360,000 compounds, 0.061% hits;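 active = GFP/RFP ratio change of at least 30% with cell ATP level not reduced by more than half and red fluorescence within 50% of control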; also: strong numbers were not always called active
#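 Assay system: HT1080 RFP-PRO-GFP cells. Benchmarks: DMSO vehicle wells and RFP-L50D-GFP reporter cell wells. Times: overnight cell settling, then overnight compound exposure, 37 °C, 5% CO2. Compound: 20 µM single dose, 1% DMSO. Read-out basis: GFP/RFP fluorescence ratio.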
# Rce1 inhib: yeast Rce1p protease inhibitors, primary screen, biochemical, fluorescence, cell-free homogeneous; CAAX prenyl protease 2 (Saccharomyces cerevisiae (strain ATCC 204508 / S288c)), Q03530; yeast membranes, quenched prenylated peptide cleavage fluorescence; calls only; 290,000 compounds, 0.27% hits;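 active = fall in fluorescence gain of 50% or more versus controls, with final raw signal at or below 3038400; inconclusive = same 50% fall but final raw signal above 3038400; inactive = fall in fluorescence gain under 50%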;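 also: plate controls were neutral control wells for no effect and wells lacking membranes for full effect; tested at 10 µM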
# Target sequence (Q03530 whole entry, looked up): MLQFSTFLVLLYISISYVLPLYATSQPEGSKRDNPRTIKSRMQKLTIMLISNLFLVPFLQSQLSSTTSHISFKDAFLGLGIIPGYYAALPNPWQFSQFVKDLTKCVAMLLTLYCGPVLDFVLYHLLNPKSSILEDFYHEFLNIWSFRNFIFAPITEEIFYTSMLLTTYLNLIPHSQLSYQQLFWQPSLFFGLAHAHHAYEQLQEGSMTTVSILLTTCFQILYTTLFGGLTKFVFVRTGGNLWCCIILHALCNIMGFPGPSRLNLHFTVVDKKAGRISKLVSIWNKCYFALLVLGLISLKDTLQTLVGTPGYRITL
# Env fusion inh: inhibitors of HIV-1 Env-driven cell-cell fusion, primary screen, HeLa-JRFL effector, CEM21 target cells, luciferase. inhibition, % at 12.3 µM. 360,000 compounds, 1.1% hits. AID 651610, 2012;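 active = mean replicate inhibition score of at least 50 and every replicate individually at or above 50; inconclusive = only one of the two criteria met; inactive = mean below 50 and not all replicates reaching 50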;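 also: 0% = plate neutral controls and 100% = maraviroc near 300 nM; one replicate is shown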
# eIF4H inh: human eIF4H binding inhibitors, primary screen, translation initiation inhibitor project, biochemical, uHTS, fluorescence polarization; Eukaryotic translation initiation factor 4H (Homo sapiens), Q15056; eIF4H fluorescence polarization binding assay; inhibition, % at 35 µM; 290,000 compounds, 0.94% hits;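 active = 50% or more with normal probe brightness, or confirmed in later tests; inconclusive = above 50% with abnormal brightness, or retests that disagree; inactive = below 50% or failed in later tests; about a fifth of its hits are not listed in these tables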;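 also: calls also rest on retests at 20 µM and on dose response follow-up; 0% = protein and probe with vehicle and 100% = probe without protein; strong numbers were not always called active; many hits fall short of the cut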
# PABP polyA inh: PABP poly(A) RNA binding inhibitors, primary screen, biochemical, fluorescence polarization, uHTS | Polyadenylate-binding protein 1 (Homo sapiens), P11940 | inhibition, % at 35 µM | 290,000 compounds, 1% hits;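 active = 50% or more with normal probe brightness, or confirmed in later tests; inconclusive = above 50% with abnormal brightness, or retests that disagree; inactive = below 50% or failed in later tests; about a fifth of its hits are not listed in these tables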;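 also: calls also rest on retests at 20 µM and on dose response follow-up; controls were probe without protein and protein plus probe with vehicle; some compounds called inactive have numbers as strong as hits; many hits fall short of the cut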
# CSC inhib: cancer stem cell viability inhibitors, primary screen, luminescence; cancer stem cell-like cells viability; inhibition, % at 7.5 µM; 300,000 compounds, 1.1% hits; AID 2717, 2010;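 active = mean at 75% or more and at least half the replicates too; inconclusive = mean and replicates disagree; tested in HMLE shEcad cells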;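 also: 0% = median of negative and 100% = median of positive control wells; the first replicate is given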
# UUG fidelity: modulators of yeast start codon fidelity, primary screen, whole organism, S. cerevisiae, single point, plate reader | S. cerevisiae UUG-firefly luciferase reporter, luminescence/redox ratio | activity score, % at 18.7 µM | 350,000 compounds, 0.13% hits | AID 602363, 2012;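 active = replicate mean at a twofold rise or more, about +100% in these data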;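 also: firefly luciferase made from a UUG start codon reports start codon fidelity; reporter light over untreated wells divided by growth signal over untreated wells; some hits fall short of that in this replicate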
# MT1-MMP act inh RFP: also measured in MT1-MMP act inh; calls as there; RFP signal change, %; measured here: RFP expression control read;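 0 = vehicle wells; hits needed this value within 50% of zero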
# Starred values were filed as active, the others as inactive; i = inactive; u = inconclusive; x = not tested or not shown; & = joins results of further samples.
canonical_smiles	MT1-MMP act inh	MT1-MMP act inh RFP	Rce1 inhib	Env fusion inh	eIF4H inh	PABP polyA inh	CSC inhib	UUG fidelity
CC(=O)N1CCc2cc(S(=O)(=O)C(C)CC(=O)Nc3ccc(OC(F)(F)F)cc3)ccc21 (configuration not stated)	-4	-24	i	19	x	x	-2	-14
COc1ccc(-c2cc3ccc(OC)cc3cn2)cc1	0	0	x	-70	x	x	1	-32
CCN1CCN(c2nc(-c3ccc(F)cc3)cc(=O)[nH]2)CC1	0	3	i	-19	5	-3	-14	-15
Cc1cccc(N2CCN(C(=O)C3CCC(=O)N(Cc4ccccc4F)C3)CC2)c1C (configuration not stated)	5	-3	i	-4	-2	-2	21	4
CCCc1nc(SCC(=O)Nc2nccs2)c2ccccc2n1	0	-9	x	0	-7	-9	2	-2
COc1ccc(C(CNC(=O)CN(C)S(=O)(=O)c2ccc(C)cc2)N2CCCC2)cc1 (configuration not stated)	1	2	x	-1	x	x	9	-3
C/C(=N\NC(=O)COc1ccccc1-c1ccccc1)c1cccnc1	0	-3	i	6	-10	-10	-10	x
O=[N+]([O-])c1ccc(-c2csc(N3CCc4ccccc4C3)n2)cc1	2	6	i	-80	-3	-5	5	-22
C[C@H](Cc1ccccc1)Nc1ncnc2c1ncn2[C@@H]1O[C@H](CO)[C@@H](O)[C@H]1O	-2	-1	x	5	x	x	-7	-21
Cc1coc2c(C)c3oc(=O)c4c(c3cc12)CCCC4	-1	1	i	x	4	12	-5	x
O=c1c2ccccc2nnn1CSc1nnc(-c2ccco2)o1	7	-3	i	10	4	9	-14	-9
O=C(Cc1cc(=O)[nH][nH]1)N/N=C/C(Cl)=C/c1ccccc1	22&1	0&2	i	x	2&-10	2&-9	-7&-8	-1
O=C(Cc1ccccc1)N/N=C/c1ccc([N+](=O)[O-])s1	-7	-12	i	x	12	4	9	13
Nc1c2nc(-c3ccccc3)[nH]c(=O)c2nc(=O)n1-c1ccccc1	4	0	i	1	4	-1	0	-12
COc1ccccc1C(=O)NNC(=S)Nc1ccccc1	-3	0	i	10	6	38	x	x
COc1cccc(-c2cccc(NC(=O)C3CCN(CC4CCOC4)CC3)c2)c1 (configuration not stated)	-1	6	i	3	-8	0	-4	-15
Cc1ccc(SCC(=O)c2c(C)nc3ccccn23)cc1	2	-13	i	-12	4	6	-9	x
Cn1nnc(-c2ccc(OCc3ccccc3F)cc2)n1	11	9	i	-233	-4	-4	20	-28
CC/C(=N\n1nnnc1Nc1ccccc1)c1ccccc1	1	0	i	-7	1	18	-18	7
O=C(Nc1cnc2ccccn2c1=O)c1ccc(Cl)cc1	7	3	i	-127	5	-2	-1	-17
NC(Cc1c[nH]c2ccccc12)C(=O)NCc1ccco1 (configuration not stated)	0	4	i	1	-1	-6	-1	x
CC(CCc1ccccc1)NC(=O)CN1CCN(c2ccc(O)cc2)CC1 (configuration not stated)	-1	1	i	0	-6	5	15	-15
Cc1cc(NC(=O)NC2(C(F)(F)F)Oc3ccc(Cl)cc3O2)no1 (configuration not stated)	7	-6	i	x	-6	8	73	-12
O=C(Cc1c(F)cccc1Cl)Nc1ccc(S(=O)(=O)N2CCOCC2)cc1	5	2	i	11	0	-7	-9	5
N/C(=N\OC(=O)c1cccc2ccccc12)c1cccnc1	-2	3	i	-59	4	8	-7	x
CCOC(=O)N1CCN(C(=O)c2ccc([N+](=O)[O-])cc2Cl)CC1	0	-4	i	11	-1	4	-17	-1
COC(CN(C)S(=O)(=O)c1cc2c3c(c1)CCC(=O)N3CCC2)OC	1	3	i	-5	-4	6	-12	-14
CC1C=CCC2C(=O)N(c3cc(Cl)ccc3O)C(=O)C12 (configuration not stated)	-2	5	i	-21	-3	2	-12	-3
CC1Oc2ccccc2N(CC(=O)N2CCCCCC2)C1=O (configuration not stated)	0	4	i	-1	5	-3	-2	-14
CC(C)n1nc(C(=O)OCC(=O)N(C)C2CCS(=O)(=O)C2)c2ccccc2c1=O (configuration not stated)	3	3	i	-20	6	5	x	-13
COc1ccccc1/C=C/C(=O)OCC(=O)NCc1ccco1	2	1	i	-47	34	0	4	-10
c1ccc(Oc2ccccn2)cc1	-2	2	x	3	x	x	x	-14
CCOc1ccc2nc(S(=O)(=O)NC(=O)C3(C)CCN3C(=O)CCc3cccs3)sc2c1 (configuration not stated)	-3	1	x	-8	x	x	x	13
CC(C)(C)C(=O)OCc1cn(-c2ccc(Cl)cc2)nn1	-2	1	i	-28	-2	2	10	-7
CCC(C)(C)NC(=O)c1cccc(NC(=O)C(C)C)c1	0	3	i	7	-10	-2	-7	x
Cc1ccccc1-c1cc2nc(NCCc3ccncc3)n(C)c(=O)c2s1	-5	-1	x	16	x	x	x	-15
CCn1nnnc1SCC(=O)Nc1nc(-c2cccs2)cs1	1	1	i	22	3	1	-16	-9
O=C(CN1CCN(c2ccccc2)CC1)c1c[nH]c2ccccc12	-3	1	i	-6	-13	-9	3	1
COc1ccccc1/C=N/OC(=O)c1ccc(C)cc1	1	1	i	6	0	0	-1	-7
Cc1cc(-c2ccc(C)c(S(=O)(=O)NCC3CCN(Cc4cccc(F)c4)CC3)c2)on1	1	-7	i	-2	-13	0	14	11
CCOc1ccc(NC(=O)CSc2nnc(Cn3cnc([N+](=O)[O-])n3)n2C)cc1	6	5	i	-10	-5	6	-5	-14
CCCC(=NCC(=O)O)C1=C(O)C(C(=O)OC)C(C)(C)CC1=O (configuration not stated)	1	2	i	x	-1	1	-4	-23
Cc1ccc(C(=O)Nc2cccnc2Oc2ccc(Cl)cc2)cc1	-3	-5	i	-33	5	10	1	9
CN=C(C)C1=C(O)C(C(=O)OC)C(C)(C)CC1=O (configuration not stated)	3	1	i	x	-14	0	-11	-14
O=C(NCc1cccs1)c1cc(S(=O)(=O)N2CCCCC2)ccc1Cl	3	-1	i	x	9	-10	-4	1
O=C(CCNS(=O)(=O)c1ccc(Cl)cc1)NCCc1ccccc1	1	0	x	-21	x	x	x	-37
COc1ccc(C(=O)OCC(=O)NC2CCCC2)c(OC)c1OC	4	4	i	-6	-4	7	-16	-3
COc1ccc(C(=O)NCc2ccc3c(c2)CCO3)cc1	0	0	i	20	0	-8	-3	x
CCOC(=O)N1CCN(C(=O)CN2C(=O)COc3ccc(C)cc32)CC1	-5	0	i	-14	-1	-2	-4	-16
Cc1ccc(/C=N/NC(=O)c2cc(-c3ccncc3)nc3ccccc23)o1	9	-4	i	11	10	0	x	-21
O=C(NCc1ccccc1)C1CCN(S(=O)(=O)c2ccc(N3CCCC3=O)cc2)CC1	2	-4	i	-4	-5	9	-4	x
N#Cc1cccc(Cn2nnc(-c3ccccc3)n2)c1	-2	-2	i	x	-14	-13	-17	-9
COc1ccc(C(=O)Nc2nnc(CCc3ccccc3)s2)c(OC)c1	3	-2	i	-32	-12	-4	24	-10
Cc1ccc(C)c(NC(=S)N2CCCCC2CO)c1 (configuration not stated)	-1	4	i	-7	-2	26	x	x
CCN(CC)C(=O)c1nc[nH]c1C(=O)N1CCN(c2ccccc2)CC1	0	1	x	-17	x	x	-11	0
Cc1cc(=O)c(C(=O)O)cn1Nc1ccc(F)cc1	-2	-5	i	-22	-1	7	11	-7
CO/N=C/C(C#N)=C/c1cc(C(=O)c2ccc(F)cc2)cn1C	-2	-3	i	-5	-8	-1	-11	x
Cc1onc(-c2c(Cl)cccc2Cl)c1C(=O)Nn1cnnc1	1	0	i	x	-11	6	-15	-25
O=C1c2ccccc2CCc2ccccc21	0	3	x	-1	x	x	x	-16
COc1ccc(CN2CCN(C(=O)c3ccco3)CC2)cc1	10	-3	i	x	-3	-1	-8	-6

# Four compounds from above, ordered by length of the SMILES, low to high.
canonical_smiles	MT1-MMP act inh	MT1-MMP act inh RFP	Rce1 inhib	Env fusion inh	eIF4H inh	PABP polyA inh	CSC inhib	UUG fidelity
O=c1c2ccccc2nnn1CSc1nnc(-c2ccco2)o1	7	-3	i	10	4	9	-14	-9
COc1ccccc1/C=C/C(=O)OCC(=O)NCc1ccco1	2	1	i	-47	34	0	4	-10
Cc1ccc(/C=N/NC(=O)c2cc(-c3ccncc3)nc3ccccc23)o1	9	-4	i	11	10	0	x	-21
Cc1cccc(N2CCN(C(=O)C3CCC(=O)N(Cc4ccccc4F)C3)CC2)c1C (configuration not stated)	5	-3	i	-4	-2	-2	21	4

# The results go on.
canonical_smiles	MT1-MMP act inh	MT1-MMP act inh RFP	Rce1 inhib	Env fusion inh	eIF4H inh	PABP polyA inh	CSC inhib	UUG fidelity
COc1ccc(C(C)(C)C)cc1NC(=O)CCCn1c(=O)oc2ccccc21	2	-1	i	49	-4	-9	5	x
Brc1cnc(N2CCCC2)nc1N1CCOCC1	8	4	i	-14	-13	-10	-3	-9
CC1(C)OC(=O)C(=CNCCc2ccc(O)cc2)C(=O)O1	-3	-3	i	16	-9	15	3	-11
CCCCN(CC)S(=O)(=O)c1ccc(C(=O)N=c2sc3cc(NC(C)=O)ccc3n2C)cc1	3	-2	i	x	0	27	49	-2
CCc1ccc(NC(=O)Cn2nc(C(F)(F)F)c3c2CCC3)cc1	-1	-5	i	-47	-3	4	x	-7
CCn1c(C)nc2cc(C(=O)N=Nc3c(O)[nH]c4c(C)cc(C)cc34)ccc21	x	x	i	8	15	6	20	x
O=C1NCCO1	6	8	x	-3	x	x	-7	-12
CCOC(=O)c1c(C)c(C(=O)NCc2ccco2)c(C)n1C	1	2	i	-1	-8	-10	-5	x
Cc1ccc(NC(=O)/C=C/C(=O)O)c([N+](=O)[O-])c1	1	3	i	x	-3	-8	3	-4
COc1cccc(N2CCN(C3CC(=O)N(c4ccc(C)c(Cl)c4)C3=O)CC2)c1 (configuration not stated)	5	0	i	x	-5	-2	-17	x
C=CCn1c(C)c(/C=C/c2cc[n+](C)cc2)c2ccccc21	-250	-23	i	17	u	u	15	12
Cc1ccc(O)c(Nc2c3ccccc3nc3ccccc23)c1	-2	-12	i	9	-1	3	4	5
CC(NC(=O)CC(c1ccccc1)c1cc(Cl)ccc1O)c1ccccc1 (configuration not stated)	-6	-16	i	x	6	0	-16	x
Cc1ccc(N(C(=O)Cn2nnc3ccccc32)C(C(=O)NCc2ccccc2)c2ccccn2)cc1 (configuration not stated)	-6	-4	i	-10	7	-7	-8	-15
CN1c2ccccc2C(=O)/C(=C\Nc2ccc(F)cc2F)S1(=O)=O	2	3	i	0	-10	10	-10	2
CN(C(=O)CCn1c(=S)oc2ccccc21)c1ccc(F)cc1	-3	1	i	-18	-1	-5	0	x
O=C(Cc1cccs1)N/N=C/C=C/c1ccccc1	-1	5	i	-16	-5	2	x	-25

# Hits appear at their usual frequency (roughly 3% active in at least one column).
